Compound activity (PubChem BioAssay)
VDR inhibitor: vitamin D3 receptor (human) inhibition | P11473 | VDR-SRC2-3 peptide fluorescence polarization, 2 h | Potency, µM, for the others: max response, negative = inhibition, most hits filed as inhibitors | 0.93% of 400,000 active | AID 504847; active means well fitted inhibition curve with a large enough effect; inconclusive means small, poorly fitted or top-dose-only effect, or another doubt; inactive means no such curve, though single readings can be large or run the other way; further: series mostly up to about 120 µM
Target sequence (P11473 whole entry, looked up): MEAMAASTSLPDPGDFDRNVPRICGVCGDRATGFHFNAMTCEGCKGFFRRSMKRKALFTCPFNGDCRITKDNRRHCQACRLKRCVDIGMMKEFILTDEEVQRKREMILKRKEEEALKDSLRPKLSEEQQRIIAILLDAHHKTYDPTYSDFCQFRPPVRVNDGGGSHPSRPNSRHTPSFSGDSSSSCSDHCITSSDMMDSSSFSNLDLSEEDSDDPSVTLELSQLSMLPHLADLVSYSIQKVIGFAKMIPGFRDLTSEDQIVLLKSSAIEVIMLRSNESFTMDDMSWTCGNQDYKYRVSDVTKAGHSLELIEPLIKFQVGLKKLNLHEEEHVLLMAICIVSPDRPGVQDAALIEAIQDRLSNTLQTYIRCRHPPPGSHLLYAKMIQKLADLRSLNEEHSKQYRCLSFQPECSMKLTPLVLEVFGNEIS
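Signal is fluorescence polarization, reporting how far test compounds block the interaction of VDR with the SRC2-3 coregulator peptide after a 2 h room-temperature incubation.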
* hit, by the source's call; & = joins results of further samples. On the % scale 0 is the no-effect control and ±100 the full control effect; potency means the concentration at half of the fitted maximal effect. A portion of the library; count on the stated rates, not on these rows.

Results for COc1ccccc1-n1c(SCC(=O)N2CCCCC2)nc(O)c(Cc2ccccc2)c1=O ?
VDR inhibitor: -21%

How did COc1ccc(C2(CNS(=O)(=O)c3ccc(C)cc3)CCOCC2)cc1 do in these assays?
VDR inhibitor: 4%

What do the screens show for `C/C(=N\NC(=O)CCCNc1ccc(C)cc1)c1ccccn1`?
VDR inhibitor: 4%

How did O=C(NCCSc1ccccc1)c1cccnc1 do in these assays?
VDR inhibitor: 15%

What do the screens show for `O=[N+]([O-])c1ccc(OCCOCCOc2ccc([N+](=O)[O-])cc2)cc1`?
VDR inhibitor: -10%

What do the screens show for `O=C(Nc1cccc(NC(=O)c2ccc(-c3ccc(Br)cc3)o2)c1)c1ccccc1`?
VDR inhibitor: -1%

Results for O=C(Cc1ccccc1)N(Cc1cccnc1)c1nc2ccc(Cl)cc2s1 ?
VDR inhibitor: 7%

How did CCOCCCN(CCC#N)C(=O)C1CCN(S(=O)(=O)c2ccc(-n3cnnn3)cc2)CC1 do in these assays?
VDR inhibitor: 9%

Results for O=S(=O)(NCc1ccco1)c1cnc(Cl)c(Cl)c1 ?
VDR inhibitor: 3%

What do the screens show for `O=S(=O)(NC1CCCCC1Sc1ncccn1)c1ccccc1` (stereo unspecified)?
VDR inhibitor: inconclusive

What do the screens show for `O=C(CCN1CCCCC1)Nn1c(=S)[nH]c2ccccc2c1=O`?
VDR inhibitor: -12%

Results for O=C(c1cccc(F)c1)N1CCN(S(=O)(=O)c2ccccc2)CC1 ?
VDR inhibitor: 5%

How did COc1cc(C(=S)N2CCOCC2)ccc1OC(=O)c1cc([N+](=O)[O-])cc([N+](=O)[O-])c1 do in these assays?
VDR inhibitor: -20%

Results for Cc1ccc(Nc2nc(-c3cccs3)cs2)nc1 ?
VDR inhibitor: -22%

What do the screens show for `CCc1ccc(CC2S/C(=C(\C#N)C(C)=O)NC2=O)cc1` (stereo unspecified)?
VDR inhibitor: -9%

What do the screens show for `COCc1c(C(=O)N2CCN(CCOc3ccccc3)CC2)oc2ccccc12`?
VDR inhibitor: -17%

How did Cc1ccc(N=Nc2c(O)ccc3n[nH]nc23)cc1 do in these assays?
VDR inhibitor: -8%

Results for CCOc1ccccc1N(CC(=O)NC1CCCCC1)S(C)(=O)=O ?
VDR inhibitor: -7%

How did Cc1cc(C)nc(-n2nc(C)c3c2NC(=O)CC3c2ccccc2OC(C)C)n1 (stereo unspecified) do in these assays?
VDR inhibitor: 14%

How did Cn1c(=O)oc2cc(S(=O)(=O)N3CCC(C(=O)N4CCN(c5ccc(F)cc5)CC4)CC3)ccc21 do in these assays?
VDR inhibitor: 8%

What do the screens show for `Cc1cccc(-c2cc3nc4c(c(N5CCCC(O)C5)n3n2)CCC4)c1` (stereo unspecified)?
VDR inhibitor: -4%

Results for COCCN(C(=O)CCCC(=O)Nc1ccccn1)C(C(=O)NC1CCCCC1)c1ccc(C)cc1 (stereo unspecified) ?
VDR inhibitor: -9%

What do the screens show for `COc1ccccc1CNC(=O)COC(=O)C1CCN(S(=O)(=O)c2ccc(C)c(C)c2)CC1`?
VDR inhibitor: 3%

Results for CC1Sc2ccc(S(=O)(=O)CCC(=O)N3CCN(c4ccccc4F)CC3)cc2NC1=O (stereo unspecified) ?
VDR inhibitor: -15%

Entries shown so far that contain a furan ring, fused or not, in the order listed:
What do the screens show for `O=C(Nc1cccc(NC(=O)c2ccc(-c3ccc(Br)cc3)o2)c1)c1ccccc1`?
VDR inhibitor: -1%

Results for O=S(=O)(NCc1ccco1)c1cnc(Cl)c(Cl)c1 ?
VDR inhibitor: 3%

What do the screens show for `COCc1c(C(=O)N2CCN(CCOc3ccccc3)CC2)oc2ccccc12`?
VDR inhibitor: -17%

The list continues.
Results for O=C(O)C(NS(=O)(=O)c1cccc2nsnc12)c1ccccc1 (stereo unspecified) ?
VDR inhibitor: -3%

How did O=C(NCc1csc2ccc(Cl)cc12)Nc1cccc2ccccc12 do in these assays?
VDR inhibitor: 5%

Results for CCN(C(=O)c1cc2c(=O)oc3ccccc3c2s1)c1ccc(C)c(C)c1 ?
VDR inhibitor: -22%

Results for C/C(=N\Nc1nc(N2CCCCC2)nc(N2CCOCC2)n1)c1ccccc1O ?
VDR inhibitor: -5%

What do the screens show for `O=C1CCc2ccccc2N1`?
VDR inhibitor: -15%

Results for COc1ccc(C(=O)COC(=O)c2cccc(NC(=O)c3ccc(OC)c(OC)c3)c2)cc1 ?
VDR inhibitor: 0%

How did CSc1ccc(/C=N/S(=O)(=O)c2ccccc2)cc1 do in these assays?
VDR inhibitor: 16%

What do the screens show for `CC1(C)Cc2ccccc2C(N/N=C/c2ccc([N+](=O)[O-])cc2)=N1`?
VDR inhibitor: -15%

What do the screens show for `COc1cccc(N2CC(C(=O)Nc3nnc(SCC(=O)Nc4cc(C)on4)s3)CC2=O)c1` (stereo unspecified)?
VDR inhibitor: -7%

How did O=C(OCC(=O)N1CCN(c2ccccc2)CC1)c1ccc2ccccc2n1 do in these assays?
VDR inhibitor: -1%

What do the screens show for `CN(CC(=O)Nc1ccc(Cl)c(C(F)(F)F)c1)C(=O)C1CCC1`?
VDR inhibitor: -9%

What do the screens show for `Brc1cccc(CN2CCN(c3ncccn3)CC2)c1`?
VDR inhibitor: 10%

What do the screens show for `CSc1ncccc1C(=O)N1CCN(S(=O)(=O)c2cc(C)ccc2C)CC1`?
VDR inhibitor: 7%

What do the screens show for `CC(C)(C)c1ccc(CS(=O)(=O)CC(O)CN2CCCC2=O)cc1` (stereo unspecified)?
VDR inhibitor: -17%

Results for Nc1c2c(nc3c1CCC3)CCCC2 ?
VDR inhibitor: 3%

What do the screens show for `CC(=O)Nc1ccc(N2C(=O)C3C4CC(=O)C(c5ccccc54)C3C2=O)cc1` (stereo unspecified)?
VDR inhibitor: -11%

How did Cc1cc(C(=O)CSc2nncn2C)c(C)n1-c1ccccc1 do in these assays?
VDR inhibitor: 14%

What do the screens show for `C/C(=N\NC(=O)c1ccccc1F)c1cccc(NC(=O)c2ccccc2)c1`?
VDR inhibitor: -10%

Results for COc1ccc(NS(=O)(=O)c2cccc(NC(=O)c3ccccn3)c2)cc1 ?
VDR inhibitor: -3%

Results for Cc1ccc(NC(=O)C2CCCN(S(=O)(=O)c3ccc4[nH]c(=O)ccc4c3)C2)nc1 (stereo unspecified) ?
VDR inhibitor: -5%

What do the screens show for `COc1ccc(N2CCN(CCS(=O)(=O)c3cc(Cl)ccc3Cl)CC2)cc1`?
VDR inhibitor: -7%

Results for CC(=NNC(=O)c1ccncc1)c1ccc(Cl)cc1Cl ?
VDR inhibitor: 3%

How did CCNC(=S)N1CCN(C(=O)C(Cc2ccccc2)NC(C)=O)CC1 (stereo unspecified) do in these assays?
VDR inhibitor: 0%

What do the screens show for `O=C1[C@@H]2[C@H](C(=O)N1CC(O)COCc1ccccc1)C1C=C[C@H]2C1` (stereo partly specified)?
VDR inhibitor: 3%

Among those listed so far, these have fluorine:
Results for O=C(c1cccc(F)c1)N1CCN(S(=O)(=O)c2ccccc2)CC1 ?
VDR inhibitor: 5%

How did Cn1c(=O)oc2cc(S(=O)(=O)N3CCC(C(=O)N4CCN(c5ccc(F)cc5)CC4)CC3)ccc21 do in these assays?
VDR inhibitor: 8%

Results for CC1Sc2ccc(S(=O)(=O)CCC(=O)N3CCN(c4ccccc4F)CC3)cc2NC1=O (stereo unspecified) ?
VDR inhibitor: -15%

What do the screens show for `CN(CC(=O)Nc1ccc(Cl)c(C(F)(F)F)c1)C(=O)C1CCC1`?
VDR inhibitor: -9%

What do the screens show for `C/C(=N\NC(=O)c1ccccc1F)c1cccc(NC(=O)c2ccccc2)c1`?
VDR inhibitor: -10%

(continued)
What do the screens show for `CCCNC(=O)N1[C@H](c2cccs2)[C@@H](C)C(=O)[C@@H](C)[C@@H]1c1cccs1`?
VDR inhibitor: -1%

Results for O=c1c2sc3ccccc3c2n(Cc2ccccc2F)c(=O)n1-c1ccccc1Cl ?
VDR inhibitor: -2%

What do the screens show for `COc1ccc(Cl)cc1NC(=O)c1cc2ccc3ccc(C)[nH]c3c2n1`?
VDR inhibitor: 13%

Results for Cc1ccc(C(=O)CSc2nnc(Cn3nnc4ccccc43)n2C)cc1 ?
VDR inhibitor: 43%

How did CCOc1ccc(NC(=O)C(=O)NCCc2sc(-c3ccc(C)cc3)nc2C)cc1 do in these assays?
VDR inhibitor: 4%

How did CCCCOc1ccc(C(=O)N2CCNC(=O)C2)cc1 do in these assays?
VDR inhibitor: -12%

Results for Cc1[nH]nc2ncc(C(=O)c3cc(Cl)cc(Cl)c3O)cc12 ?
VDR inhibitor: -8%

How did CCCCN(C)CCn1c(=S)[nH]c2ncccc2c1=O do in these assays?
VDR inhibitor: -16%

How did CCOC(=O)Cn1nc(C)n(-c2ccc(C(C)(C)C)cc2)c1=O do in these assays?
VDR inhibitor: -14%

What do the screens show for `CCCN(c1ccccc1F)S(=O)(=O)c1cc(-c2cc(C)no2)ccc1C`?
VDR inhibitor: 1%

How did O=C(Nc1ccc(F)cc1F)c1cc(-c2ccco2)nc2ccccc12 do in these assays?
VDR inhibitor: inconclusive

What do the screens show for `CC(C)[C@@H](COc1ccccc1)N1CCN(Cc2ccccc2)CCC1=O`?
VDR inhibitor: -10%

What do the screens show for `Cc1c(C(=O)N2CCN(CC(=O)Nc3ccccc3Cl)CC2)oc2ccc(Br)cc12`?
VDR inhibitor: 11%

How did COC(=O)c1ccccc1NC(=O)CSc1nc(O)cc(=O)n1C1CCCC1 do in these assays?
VDR inhibitor: -7%

Results for Oc1c(C(c2ccc(Cl)cc2Cl)N2CCCC2)sc2nc(-c3ccco3)nn12 (stereo unspecified) ?
VDR inhibitor: -2%

How did CCn1cc(C(=O)N(C)Cc2ccccc2)c(=O)c2cc(S(=O)(=O)N3CCCCC3)ccc21 do in these assays?
VDR inhibitor: 3%

How did Cc1nnc(Nc2ccc(F)cc2)c2ccccc12 do in these assays?
VDR inhibitor: -9%

What do the screens show for `COc1ccc(-c2[nH]ncc2CNC(C)CCn2cccn2)cc1F` (stereo unspecified)?
VDR inhibitor: 22%

What do the screens show for `CCS(=O)(=O)Nc1cccc(C2=NN(C(=O)c3ccco3)C(c3ccco3)C2)c1` (stereo unspecified)?
VDR inhibitor: -13%

What do the screens show for `Nc1nnc(CC(=O)N/N=C/c2ccc(-c3cccc(C(=O)O)c3)o2)s1`?
VDR inhibitor: 0%

How did CCS(=O)(=O)n1nc(-c2cccnc2)nc1NCc1ccc(F)cc1 do in these assays?
VDR inhibitor: -6%

What do the screens show for `Cc1cc(CNC(=O)CC2C(=O)NCCN2CC(C)(C)C)nn1C` (stereo unspecified)?
VDR inhibitor: 12%

Results for C/C(=N\NC(N)=S)C1=CCC2C3CC[C@H]4CC(O)CC[C@]4(C)C3CC[C@]12C (stereo partly specified) ?
VDR inhibitor: inconclusive

What do the screens show for `CCCOc1ccc(C(=O)CCC(=O)NNC(=O)c2cccs2)cc1`?
VDR inhibitor: 7%

How did Cc1ccc(NC(=O)c2c([N+](=O)[O-])c(C(C)(C)C)nn2C)c(C)c1 do in these assays?
VDR inhibitor: -8%

What do the screens show for `CSc1nsc(SCC(=O)Nc2cccc(NC(C)=O)c2)n1`?
VDR inhibitor: -8%

What do the screens show for `O=C(Cc1ccccc1)Nc1nc(-c2cccs2)cs1`?
VDR inhibitor: 0%

How did CCN=C1SC(C(=O)NCCc2ccccc2)CC(=O)N1CC (stereo unspecified) do in these assays?
VDR inhibitor: -6%

How did COc1ccccc1N1CCN(C(=O)c2sc3nc(C)nc(N4CCN(c5ccccn5)CC4)c3c2C)CC1 do in these assays?
VDR inhibitor: -9%

What do the screens show for `CCC1CN(C(=O)N2CCC(C(=O)NCCc3cc(OC)ccc3OC)CC2)c2ccccc2O1` (stereo unspecified)?
VDR inhibitor: 6%

What do the screens show for `Cc1nc2ccc(NC(=O)[C@H](C)N3C(=O)C4CC=CCC4C3=O)cc2s1` (stereo partly specified)?
VDR inhibitor: -7%

How did O=Cc1c(OCc2ccccc2)ccc2ccccc12 do in these assays?
VDR inhibitor: inconclusive

Results for Cc1c(OC(C)C(=O)N2C[C@H]3C[C@@H](C2)c2cccc(=O)n2C3)ccc2c3c(c(=O)oc12)CCC3 (stereo partly specified) ?
VDR inhibitor: -10%

Results for CN(C)C(CNC(=O)c1ccccc1OCc1ccc(Cl)cc1)c1ccco1 (stereo unspecified) ?
VDR inhibitor: -10%

How did COc1ccc2cc3[n+](cc2c1OC)CCc1cc2c(cc1-3)OCO2 do in these assays?
VDR inhibitor: 11%&-20%&-21%&7%&8%

What do the screens show for `CCOc1ccccc1NC(=O)CCn1cnnn1`?
VDR inhibitor: 3%

How did Cn1c(Oc2ccc(F)cc2)c(C=O)c2ccccc21 do in these assays?
VDR inhibitor: 8%

Results for O=C(Nc1ccc(S(=O)(=O)N2CCCCC2c2cccnc2)cc1)c1c(F)cccc1F (stereo unspecified) ?
VDR inhibitor: -6%

Results for CCCN1C2CCCC1CC(NC(=O)NC13CC4CC(CC(C4)C1)C3)C2 (stereo unspecified) ?
VDR inhibitor: -5%

How did Cc1cc(NC(=O)CN2CCN(c3ccc(O)cc3)CC2)no1 do in these assays?
VDR inhibitor: -22%

Results for COc1c2ccoc2nc2c(OC)c(OC[C@H](O)C(C)(C)O)ccc12 ?
VDR inhibitor: 0%

How did O=C(Nc1ccc(Cl)cc1)Nc1nnc(CSCc2ccccc2)s1 do in these assays?
VDR inhibitor: -7%

Results for CNS(=O)(=O)c1cn(CC(=O)Nc2ccc(F)cc2F)cc1S(=O)(=O)NC ?
VDR inhibitor: -1%

Results for CCCCN(C)C(=S)Nc1ccc(Oc2ccccc2)cc1 ?
VDR inhibitor: -22%

What do the screens show for `Cc1ccccc1NC(=O)CCCCCN1C(=O)[C@@H]2Cc3ccccc3CN2C1=O`?
VDR inhibitor: -7%

What do the screens show for `O=[N+]([O-])c1ccccc1N/N=C/c1ccccc1`?
VDR inhibitor: 3%

What do the screens show for `CC(=O)c1sc2c(c1OC(=O)c1ccc(Cl)cc1)c(=O)n(-c1ccccc1)c(=S)n2-c1ccccc1`?
VDR inhibitor: -8%

How did CCCc1cc(=O)oc2cc(C)cc(OCC(=O)NCCN3CCOCC3)c12 do in these assays?
VDR inhibitor: -8%

How did CCOc1cc(-c2noc(N)c2C#N)cc(OCC)c1OCC do in these assays?
VDR inhibitor: -1%
